# TDP1 block – TDP1 (human) enzyme inhibition. recombinant TDP1, AlphaScreen DNA substrate cleavage. Potency, µM (titrated, usually from 130 µM), for inactives: at the highest dose activity change, negative = inhibition, hits mostly inhibitors. hit rate 0.28% among 350,000; active = well fitted inhibition curve with a large enough effect; also: nearly all actives have a fitted effect of over 40% in size
# Target sequence (Q9NUW8 whole entry, looked up): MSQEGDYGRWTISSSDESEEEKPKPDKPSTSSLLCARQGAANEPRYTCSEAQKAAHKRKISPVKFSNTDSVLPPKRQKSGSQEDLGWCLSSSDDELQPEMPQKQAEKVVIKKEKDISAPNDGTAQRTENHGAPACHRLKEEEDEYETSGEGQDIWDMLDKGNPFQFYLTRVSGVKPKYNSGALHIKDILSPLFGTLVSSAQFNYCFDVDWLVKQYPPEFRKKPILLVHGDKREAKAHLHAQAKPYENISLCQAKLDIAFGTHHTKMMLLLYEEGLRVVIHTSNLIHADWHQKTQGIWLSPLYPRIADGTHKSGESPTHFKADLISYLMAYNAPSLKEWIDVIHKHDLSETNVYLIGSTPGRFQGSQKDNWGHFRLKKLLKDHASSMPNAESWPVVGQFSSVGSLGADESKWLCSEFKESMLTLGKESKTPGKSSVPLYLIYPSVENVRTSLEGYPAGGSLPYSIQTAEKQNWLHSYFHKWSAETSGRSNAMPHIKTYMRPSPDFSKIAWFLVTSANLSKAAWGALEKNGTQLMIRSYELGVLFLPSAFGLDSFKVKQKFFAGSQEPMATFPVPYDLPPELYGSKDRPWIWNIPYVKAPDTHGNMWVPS
#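 Recombinant human Tdp1 (E. coli-expressed, 1 nM final) preincubated with compounds 15 min at room temperature, then 5'-biotin/3'-phosphotyrosine-FITC DNA substrate (15 nM final) added for 5 min. AlphaScreen beads (10 ug/ml final) added 10 min; cleavage lowers signal.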
# * marks the source's active call; other numbers are inactive results; & = joins results of further samples; [ ] = dose if it differs, or a comment. % is scaled to controls: 0 for no effect and ±100 for the full control effect; potency is read from the fitted curve at half-maximal effect. Not all compounds are listed, and most or all hits are left out here.
No.	TDP1 block	canonical_smiles
1	10%	CO[C@@]12C[C@@H](COC(=O)c3cncc(Br)c3)CN(C)[C@H]1Cc1cn(C)c3cccc2c13
2	5%[56.1 µM]	CCN1CCCC1CNC(=O)c1cc(S(N)(=O)=O)ccc1OC (stereo not given)
3	3%	CC(=O)c1cccc(NC(=O)CNC(=O)Cc2ccccc2)c1
4	3%	NCCS(=O)(=O)O
5	3%	O=C(Cc1ccc(S(=O)(=O)N2CCOCC2)s1)N1CCN(c2ccc(C(F)(F)F)cc2[N+](=O)[O-])CC1
6	12%	CO[C@H]1C=CO[C@@]2(C)Oc3c(C)c(O)c4c(O)c(c(C=NN5CCN(C6CCCC6)CC5)c(O)c4c3C2=O)NC(=O)C(C)=CC=C[C@H](C)[C@H](O)[C@@H](C)[C@@H](O)[C@@H](C)[C@H](OC(C)=O)[C@@H]1C
7	0%	C/C(=N\NC(=S)Nc1ccc(C)cc1)c1cc2ccccc2o1
8	-1%	CN1CCC=C(C(=O)N2c3ccccc3Sc3ccc(Cl)cc32)C1
9	-3%	Cc1ccc(C)c(OCCCC(C)(C)C(=O)O)c1
10	2%	C[C@H](CCC(=O)O)[C@H]1CC[C@H]2[C@H]3C(C[C@H](O)[C@]12C)[C@@]1(C)CC[C@@H](O)C[C@H]1C[C@H]3O (stereo not given in full)
11	6%	OCCNCCO
12	16%	CC(C)C1CCC(C(=O)NC(Cc2ccccc2)C(=O)O)CC1 (stereo not given)

# Entries above that have a COOH group, in the order listed:
No.	TDP1 block	canonical_smiles
9	-3%	Cc1ccc(C)c(OCCCC(C)(C)C(=O)O)c1
10	2%	C[C@H](CCC(=O)O)[C@H]1CC[C@H]2[C@H]3C(C[C@H](O)[C@]12C)[C@@]1(C)CC[C@@H](O)C[C@H]1C[C@H]3O (stereo not given in full)
12	16%	CC(C)C1CCC(C(=O)NC(Cc2ccccc2)C(=O)O)CC1 (stereo not given)

# Other entries follow:
No.	TDP1 block	canonical_smiles
13	7%[56.1 µM]	COC1[C@H](OC(N)=O)C(O)[C@H](Oc2ccc3c(O)c(NC(=O)c4ccc(O)c(CC=C(C)C)c4)c(=O)oc3c2C)OC1(C)C (stereo not given in full)
14	6%[56.1 µM]	CC12C(=O)OC(=O)C1(C)C1CCC2O1 (stereo not given)
15	5%	O=C1c2cccc(O)c2C(=O)c2c(O)cc(CO)cc21
16	6%[56.1 µM]	COc1ccc(CCC(=O)c2c(O)cc(OC3OC(CO)C(O)C(O)C3O[C@@H]3OC(C)C(O)C(O)C3O)cc2O)cc1O (stereo not given in full)
17	7%&11%&16%&4%&13%&9%&9%	CCCc1c(OCCCCc2nn[nH]n2)ccc(C(C)=O)c1O
18	7%[21 µM]	C[C@]12CCC3c4ccc(O)cc4CCC3[C@@H]1CCC2=O (stereo not given in full)
19	8%[56.1 µM]	COC(=O)[C@@H]1[C@H]2C[C@H]3c4[nH]c5ccccc5c4CCN3C[C@@H]2CC[C@@H]1O
20	5%	CC1(C)N([O-])c2cc([N+](=O)[O-])ccc2[N+]1=O
21	4%	Cc1ccc(S(=O)(=O)NCCC(=O)N2CCN(c3ccccc3)CC2)cc1C
22	-8%[56.1 µM]	CC(=O)Oc1ccccc1C(=O)O
23	-6%	O=C(OCc1ccccc1)c1ccccc1
24	0%&2%	CC(=O)[C@@]1(O)CC[C@H]2[C@@H]3CCC4=CC(=O)CC[C@]4(C)[C@H]3CC[C@@]21C

# 3 structures from above, arranged by molecular weight, falling:
No.	TDP1 block	canonical_smiles
5	3%	O=C(Cc1ccc(S(=O)(=O)N2CCOCC2)s1)N1CCN(c2ccc(C(F)(F)F)cc2[N+](=O)[O-])CC1
10	2%	C[C@H](CCC(=O)O)[C@H]1CC[C@H]2[C@H]3C(C[C@H](O)[C@]12C)[C@@]1(C)CC[C@@H](O)C[C@H]1C[C@H]3O (stereo not given in full)
15	5%	O=C1c2cccc(O)c2C(=O)c2c(O)cc(CO)cc21

# Random excerpt: two entries already listed
No.	TDP1 block	canonical_smiles
24	0%&2%	CC(=O)[C@@]1(O)CC[C@H]2[C@@H]3CCC4=CC(=O)CC[C@]4(C)[C@H]3CC[C@@]21C
8	-1%	CN1CCC=C(C(=O)N2c3ccccc3Sc3ccc(Cl)cc32)C1

# Some of the entries so far, as labelled records.
[21] Cc1ccc(S(=O)(=O)NCCC(=O)N2CCN(c3ccccc3)CC2)cc1C
  TDP1 block: 4%

[22] CC(=O)Oc1ccccc1C(=O)O
  TDP1 block: -8%[56.1 µM]

# More compounds.
No.	TDP1 block	canonical_smiles
25	1%	COc1cc(/C=N/NC(=O)c2ccc(O)cc2)ccc1Oc1ccc([N+](=O)[O-])cn1
26	4%	COc1ccc(S(=O)(=O)c2c(O)c3ccc(C(=O)Nc4ccccc4Cl)cc3[nH]c2=O)cc1
27	0%&15%	Cc1ccc(C(=O)O)cc1[N+](=O)[O-]
28	5%	Cn1c(=O)c2c(ncn2C)n(C)c1=O
29	-5%	Cc1ncc([N+](=O)[O-])n1CCO
30	9%	CCCCNC(=O)NS(=O)(=O)c1ccc(C)cc1
31	2%	COC(=O)C1=C(C)N(C)C(=O)NC1c1c(OC)ccc2ccccc12 (stereo not given)
32	5%	CCCC(=O)Nc1ccc(OCC(O)CNC(C)C)c(C(C)=O)c1 (stereo not given)
33	16%	C[C@H](CCC(=O)O)[C@H]1CC[C@H]2[C@@H]3[C@H](O)C[C@@H]4C[C@H](O)CC[C@]4(C)[C@H]3C[C@H](O)[C@]12C
34	18%	Cc1cc2nc3c(=O)[nH]c(=O)nc-3n(C[C@H](O)[C@H](O)[C@H](O)CO)c2cc1C
35	9%[56.1 µM]	CN=C(NC#N)NCCSCc1nc[nH]c1C
36	13%[56.1 µM]	O=c1c(-c2ccc(O)cc2)coc2cc(O)ccc12
